Screens (PubChem BioAssay)
AID504770: growth inhibitors of E. coli YBA685 in a screen for V. cholerae RctB (chromosome II replication) inhibitors | AID 504770 | z-score (no concentration beside the values) | 130,000 tested, 0.27% active | E. coli YBA685 rctB-dependent plasmid, OD600 growth, 3 h; hits give low values;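 active = z-score under -2 on both plates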;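 note: wells of about 30 µL received 100 nL stock; score is relative to mean and SD of the test wells; the first replicate is given; strong numbers were not always called active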
CapD inh: blocks the Bacillus anthracis CapD enzyme. purified CapD enzyme, fluorescence intensity read-out; hits give low values; some hits fall short of the stated cut. z-score (no concentration beside the values). 140,000 tested, 0.23% active;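 active = z-score under -4 in either of two replicates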;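 note: stock transfer was 100 nL into about 40 µL; score is relative to mean and spread of the plate; one replicate is shown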
* marks the source's active call; other numbers are inactive results; nt = not tested or not shown.

SMILES	AID504770	CapD inh
c1nc2ccc(Cc3ccc4nc[nH]c4c3)cc2[nH]1	-0.8	41
O=C1/C(=C\c2ccco2)SC(=S)N1Cc1ccccc1	-0.65	nt
CSc1nnc(C2CCCN2C(=O)N(c2ccccc2)c2ccccc2)n1C (centres undefined)	-0.5	nt
CC1(C)CC(=O)C2=C(C1)NC1=C(C(=O)CC(C)(C)C1)C2c1cccs1	nt	2.1
CC(C)NC(=S)N/N=C/c1ccc2c(c1)OCCO2	0	nt
CC(C)(NO)C(=O)c1ccccc1	nt	0.76
O=C(COC(=O)CSc1cc(Cl)ccc1Cl)Nc1ccc(F)c(F)c1F	-0.85	-0.39
O=[N+]([O-])c1cccc(C2Oc3ccccc3C3CC(c4ccc(Br)cc4)=NN32)c1 (centres undefined)	nt	0.57
CCN(CC)C(=O)c1cc2c(=O)n3cccc(C)c3nc2s1	-0.25	0.47
O=C(NCCc1ccccc1Cl)OCCc1ccc(Br)cc1	nt	-0.14
CCC(Sc1nc2ncccc2c(=O)n1-c1ccccc1)C(=O)Nc1ccc(OC)cc1 (centres undefined)	-0.7	7.2
Nc1nc(SCC(=O)NCCO)nc2sc3c(c12)CCCC3	0.3	0.57
O=C(NC1CC1)/C(=C/c1ccc[nH]1)NC(=O)c1ccccc1	1.1	nt
Cc1cc(Cl)ccc1NS(=O)(=O)c1ccc2c(c1)[C@H]1C=CC[C@H]1[C@@H](c1ccccc1)N2	0.25	-0.33
CCOc1cc(/C=C2\SC(=N)N(c3nonc3N)C2=O)ccc1OCC(N)=O	nt	-0.35
O=C(Oc1cccc(N2CCOCC2)c1)c1ccc(CSC(=S)N2CCSCC2)cc1	0.35	0.84
COc1ccsc1CN(Cc1ccccc1)C(=O)Cc1ccccc1	nt	0.11
CC1(C)CC2(CC(c3ccccc3F)c3cc(Cl)c(O)cc3O2)NC(=S)N1 (centres undefined)	-0.9	0.005
Oc1ccc2ccccc2c1CN1CCC(Cc2ccccc2)CC1	nt	14
Cc1ccc(C(=O)CSc2ncn[nH]2)cc1	-1.7	0.33
N#CC(C#N)=Cc1cccc([N+](=O)[O-])c1	nt	0.16
c1ccc(C23CC4CC(CC(C4)C2)C3)cc1	nt	0.07
O=C(NCN1CCN(c2ccccn2)CC1)c1cnccn1	-0.85	nt
O=c1/c(=C/c2ccc(-c3ccc(Br)cc3)o2)sc2nc3ccccc3n12	nt	-0.1
CC(=O)N1N=C(c2c(-c3ccccc3)c3cc([N+](=O)[O-])ccc3[nH]c2=O)CC1c1cccc(Br)c1 (centres undefined)	nt	-0.87

In a second layout: 4 of the compounds above
> O=C(COC(=O)CSc1cc(Cl)ccc1Cl)Nc1ccc(F)c(F)c1F
  AID504770: -0.85	CapD inh: -0.39
> O=[N+]([O-])c1cccc(C2Oc3ccccc3C3CC(c4ccc(Br)cc4)=NN32)c1 (centres undefined)
  AID504770: nt	CapD inh: 0.57
> CCN(CC)C(=O)c1cc2c(=O)n3cccc(C)c3nc2s1
  AID504770: -0.25	CapD inh: 0.47
> O=C(NCCc1ccccc1Cl)OCCc1ccc(Br)cc1
  AID504770: nt	CapD inh: -0.14

Next section
SMILES	AID504770	CapD inh
COc1ccc(C(=O)CSc2nnc(-c3cc4cc(Cl)ccc4o3)n2C)cc1	1.6	-0.08
O=C(CCN1C(=O)/C(=C\c2cccs2)SC1=S)NC1=NCCS1	-0.6	-0.49
Cc1ccc(N2C(=O)/C(=C\c3ccc4c(c3)OCO4)N=C2SCC#N)cc1	2.5	nt
COc1cc(S(=O)(=O)Nc2ccc(NC(C)=O)cc2)ccc1F	0.45	0.45
Cc1ccc(N2C(=O)C3C4c5ccccc5C(c5ccccc54)C3C2=O)cc1[N+](=O)[O-] (centres undefined)	nt	-0.9
COc1cccc2c(=O)n(CC(=O)N3CCc4ccccc43)ccc12	0.25	-0.57
NC(=O)C1CCN(C2CC(=O)N(Cc3ccc4c(c3)OCO4)C2=O)CC1 (centres undefined)	0.75	nt
CC(C)(C)C(=O)CC1(O)C(=O)N(Cc2ccccc2)c2ccccc21 (centres undefined)	0.4	-0.21
O=C(CN1C(=O)c2ccccc2S1(=O)=O)N1CCCC1c1ccc2c(c1)OCCCO2 (centres undefined)	1.9	nt
CCOC(=O)c1ccc(OC)c(OC)c1Cl	nt	-1.1
Cc1ccc2nc(-c3ccccn3)[nH]c2c1	0.25	38
Cc1ccccc1Cn1c(=O)n(CCCCC(=O)NC2CCCC2)c(=O)c2ccccc21	-0.2	0.14
CCN(CC)C(=O)c1cccc(OC)c1	-0.2	1
O=C(c1ccc([N+](=O)[O-])cc1)N1CCc2c([nH]c3ccccc23)C1c1ccccc1 (centres undefined)	nt	-0.21
COc1cccc(CCOC(=O)N2CCC(NC(C)=O)C2)c1 (centres undefined)	nt	-0.2
CC(=O)OC1=C(C(=O)c2ccccc2)N(C)S(=O)(=O)c2ccccc21	-0.15	63
CCOc1cc(C2C(C(=O)N3CCOCC3)=C(C)NC3=C2C(=O)CC(C)(C)C3)cc(Br)c1O (centres undefined)	nt	6.4
CCN(CC)CCSc1nnnn1-c1ccccc1	-0.85	-0.025
CCOc1ccc(CN(Cc2ccco2)C(=O)NC2CCN(Cc3cc(OC)c4c(c3)OCO4)C2)cc1OC (centres undefined)	nt	0.51
CCOC(=O)c1c(CNCCN(CC)CC)n(-c2ccccc2)c2cc(Br)c(OC)cc12	nt	0.24
CC(=O)c1cccc(NC(=O)CSC2=C(C#N)C(c3ccco3)C3=C(CCCC3=O)N2)c1 (centres undefined)	nt	0.33
CC(=O)Nc1ccc(S(=O)(=O)N2C(=O)c3cccc4cccc2c34)cc1	0.9	11
CC(C)(C)c1ccc(-c2[nH]ncc2-c2cnc3ccccc3n2)cc1	nt	4.5
Cc1nnsc1C(=O)N/N=C/c1ccncc1	-1	8.7
ON=C1c2ccccc2-c2ccccc21	-0.65	-0.025

Next part:
SMILES	AID504770	CapD inh
C=CCC1Cc2ccccc2C(CC=C)N1 (centres undefined)	-0.1	nt
O=C1CSC(N2CCOCC2)=N1	-1.3	nt
CCCN1CCN(c2ncnc3sc(C(=O)Nc4ccc(OCC)cc4)c(C)c23)CC1	nt	-0.24
O=C(Nc1ccc(-n2cc(-c3cnccn3)cn2)cc1)c1cc(Cl)nc(Cl)c1	nt	1.1
Cc1ccc(NC(=O)c2cc3c(=O)n(Cc4ccco4)ccc3nc2C)cc1	-1.1	0.22
O=C(OC1CCOC1=O)c1ccc(S(=O)(=O)N2CCCc3ccccc32)cc1 (centres undefined)	-0.45	nt
O=C1NC(=S)N/C1=C\c1cc(Br)c(O)c(Br)c1	nt	-2.6
CC(C)(C)c1cc(C(C)(C)C)n(-c2ccc(C(=O)N3CCN(c4ccc(C(F)(F)F)cn4)CC3)cc2)n1	nt	-0.32
COC(=O)C1=C(C(=O)OC)SC2(S1)C(C(=O)OC)=C(C(=O)OC)SC1=C2c2cc(C)cc(C)c2N(C(=O)c2ccccc2)C1(C)C	nt	-1.1
Cc1cccc(N(C)NC(=O)Cc2ccccc2)c1	nt	-0.055
COc1ccc(OC)c(NC(=O)c2oc3c(c2C)C(O)CC(C)(C)C3)c1 (centres undefined)	-0.55	0.39
O=C(CSCC(=O)N1CCCC1)Nc1nc(-c2cccs2)cs1	-1.1	0.36
CCc1nnc(NC(=O)c2sc3nc4c(cc3c2N)CCCCCC4)s1	-0.15	4.3
N#Cc1ccc(NC(=S)NC(=O)C2CC2)cc1	0.45	nt
CCC(C)NC(=O)CSc1c2c(nc3ccccc13)CCCC2 (centres undefined)	-0.5	0.23
Cc1ccc(C2C3=C(CCCC3=O)Nc3c2c(=O)n(C)c(=O)n3C)cc1 (centres undefined)	1.8	3.7
O=S(=O)(c1cc(Br)c(Cl)s1)N1CCC(Cc2ccccc2)CC1	nt	-0.2
COC(=O)c1ccc2c(=O)n3nc(NCC4CCCO4)sc3nc2c1 (centres undefined)	-0.25	30
Cc1ccc(N(C)C(=O)n2nc(C)cc2C)cc1	-0.2	nt
N=C(SC1CC(=O)N(c2ccc(C(=O)O)cc2)C1=O)N1N=C(c2ccccc2)CC1c1ccccc1 (centres undefined)	-0.15	28
COc1ccc(-n2c(-c3ccco3)nc3ccccc3c2=O)cc1	0	-0.2
COc1ccc(-c2c(C#N)c(N)nc3sc(C(=O)c4ccc(Cl)cc4)c(N)c23)cc1	nt	-1.2
NC(=O)C1CCN(c2nc(C3CC3)nc3c2nnn3Cc2ccccc2Cl)CC1	2.5	nt
CC1CN(C(=O)c2scc3c2OCCO3)CC(C)O1 (centres undefined)	0.05	0.1
O=C1NC(=S)N/C1=C/c1ccccc1OCc1ccccc1F	nt	1.1

(cont.)
SMILES	AID504770	CapD inh
O=[N+]([O-])c1cc(N=Cc2nc(-c3ccc(Br)cc3)oc2O)ccc1Cl	nt	-0.54
Cc1c(C(=O)NCc2ccccc2)oc2ccc(S(=O)(=O)N(C)C3CCCCC3)cc12	0	3.6
O=C(Nc1nccs1)c1ccc(-c2nc3ccccc3s2)s1	-0.35	0.71
COc1cc(OC)cc(C(=O)NCc2nnc(SCC(=O)N3N=C(c4cccs4)CC3c3ccc(C)cc3)n2C)c1 (centres undefined)	nt	23
CCCSc1nc2c(c(=O)n1-c1ccc(F)cc1)SCC2	-0.8	-0.38
COc1ccc2c(c1)CCc1sc(NC(=O)c3cc(OC)c(OC)c(OC)c3)nc1-2	0.1	-0.12
COC(=O)c1c(NC(=O)CSc2nnc3sc4ccccc4n23)sc2c1CCCC2	nt	-0.53
O=c1[nH]c2ccccc2nc1N1CCOCC1	1.1	nt
O=C(Nc1ccc(-c2noc(COc3ccc(Br)cc3)n2)cc1)c1cccnc1	0.35	-0.58
COc1cccc2c(=O)c3c(cnn3C)n(C)c12	0	50
CC(=O)Nc1ccc(Br)cc1	-1.6	0.56
Cc1cc(S(=O)(=O)N2CCOCC2)ccc1OCC(=O)O	-0.25	nt
Cc1cc(C)n2nc(SCC(=O)N(C)Cc3ccccc3)nc2n1	-0.2	nt
C=CCOC(=O)C1C(c2ccccc2)c2c([nH][nH]c2=O)CC1(C)O (centres undefined)	-0.5	4
Cc1ccc(-c2nc3ncccc3o2)cc1NC(=O)/C=C/c1ccc(Cl)cc1	0.1	0.025
CCOc1cc(C2C3=C(CC(C)(C)CC3=O)OC3=C2C(=O)CC(C)(C)C3)cc(Br)c1OC	nt	-0.3
N#Cc1ccc(CCOC(=O)N2CCCC2C(=O)OCc2ccccc2)cc1 (centres undefined)	nt	0.34
Nc1nc2ccccc2n1C(=O)c1ccccc1	0.75	nt
CC1Cc2ccccc2N1C(=O)C1(S(=O)(=O)c2ccccc2)CCCC1 (centres undefined)	1.4	-0.09
CCC(C)n1c(SCC(=O)Nc2ccc(OC)cc2OC)nc2ccsc2c1=O (centres undefined)	-0.7	-0.3
NNc1ccc2[nH]c(=O)[nH]c2c1	-0.45	-0.37
COc1ccc(N=Cc2sc3ccccc3c2O)cc1	0.5	-0.46
Fc1cccc(Cl)c1Cn1c(-c2cccnc2Cl)nc2ccccc21	nt	-0.23
O=C(c1ccccc1)c1cn(Cc2ccc(F)cc2)c2ccccc12	-0.1	-0.33
COc1c(C(=O)O/N=C(\N)c2cccs2)csc1Cl	0.3	0.28

Taken from above.
ON=C1c2ccccc2-c2ccccc21 in CapD inh reads -0.025
CCc1nnc(NC(=O)c2sc3nc4c(cc3c2N)CCCCCC4)s1 in CapD inh reads 4.3
Cc1cc(S(=O)(=O)N2CCOCC2)ccc1OCC(=O)O in AID504770 reads -0.25
CCOc1ccc(CN(Cc2ccco2)C(=O)NC2CCN(Cc3cc(OC)c4c(c3)OCO4)C2)cc1OC (centres undefined) in CapD inh reads 0.51

Additional structures:
SMILES	AID504770	CapD inh
COc1ccc(C(=O)CC2(O)C(=O)Nc3ccc(C)cc32)cc1OC (centres undefined)	nt	-0.48
Cc1cc(C)c2c(n1)sc1c(Sc3nccn3C)ncnc12	0.65	1.4
COc1c[nH]n(-c2ccccc2)c(=O)c1=O	-0.45	0.085
CCCn1c(-c2ccccc2Cl)nc2ccccc21	1.9	0.48
C=CCn1c(SCC2=C(C(=O)OCC)C(C)NC(=O)N2)nnc1-c1ccoc1C (centres undefined)	-0.55	nt
Cc1occc1C(=O)C(C#N)=C(NCc1cccnc1)NCc1cccnc1	-1.6	-0.44
O=C(NC(Cc1c[nH]c2ccccc12)C(=O)O)/C(=C/c1ccco1)NC(=O)c1ccccc1 (centres undefined)	nt	-1.8
CN1C(=O)c2ccc(-c3nc4ccccc4c(=O)o3)cc2C1=O	-0.35	2.6
CCN(CCCNC(=O)c1sc2ncn(CC(=O)N3CCCCC3C)c(=O)c2c1C)Cc1ccc(C)cc1 (centres undefined)	nt	2.1
O=C(c1ncc[nH]1)c1ccccc1C(=O)N1CCCC1	0.4	0.32
Cc1c(Br)c(C(F)(F)F)nn1CC(N)=O	-1.1	0.1
Cc1ccc2nc(-c3cccc(NC(=O)C4CCCO4)c3)oc2c1 (centres undefined)	0.35	36
Cc1cc(=O)n2nc(N)sc2n1	-0.45	nt
O=C(c1cc(=O)[nH]c2ccc(Br)cc12)N1CCC2(CC1)OCCO2	0.9	nt
CCc1ccc(/C=C2\SC(=O)N(CC(=O)N3CCOCC3)C2=O)cc1	0.8	nt
Cc1cccc(C)c1N1CCN(C(=O)Cc2nc(-c3ccccc3)sc2C)CC1	nt	-0.46
N#Cc1ccc(C2N(Cc3ccccc3)CCN2Cc2ccccc2)cc1	nt	-0.08
COc1ccc(-c2nnc(Oc3cccc(NC(C)=O)c3)c3ccccc23)cc1	nt	0.12
CCc1nn(Cc2ccccc2)c(=O)c2cc3cc(C)ccc3n12	-0.4	0.51

Compound profiles, as listed above. Order of values: AID504770, CapD inh
`CCN(CCCNC(=O)c1sc2ncn(CC(=O)N3CCCCC3C)c(=O)c2c1C)Cc1ccc(C)cc1` (centres undefined) reads nt, 2.1
`CCc1ccc(/C=C2\SC(=O)N(CC(=O)N3CCOCC3)C2=O)cc1` reads 0.8, nt
`Cc1occc1C(=O)C(C#N)=C(NCc1cccnc1)NCc1cccnc1` reads -1.6, -0.44
`O=C(c1ncc[nH]1)c1ccccc1C(=O)N1CCCC1` reads 0.4, 0.32
`O=C(NC(Cc1c[nH]c2ccccc12)C(=O)O)/C(=C/c1ccco1)NC(=O)c1ccccc1` (centres undefined) reads nt, -1.8

Not all compounds are listed (hit frequency here may not be typical).
